# Compound activity as filed in PubChem.
# Six1-Eya2 blk: inhibitors of human Six1/Eya2 interaction | Q15475+O00167 | hit rate 0.56% among 360,000 | activity change, % (concentration not given with the values) | AlphaScreen GST-Six1/His-Eya2 binding, biochemical; stronger effect = lower value; control for the full effect not named in the record | AID 651725; in the data active = activity change below about -65%; inconclusive = about -30% to -65%; inactive = above about -30%; further: on the % scale 0 is the no-effect control and ±100 the full control effect
#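 AlphaScreen with GST-Six1 and His-Eya2 (5X mix: 250 nM and 500 nM), glutathione donor and nickel acceptor beads; buffer 50 mM Tris pH 8.0, 300 mM NaCl, 1 mM TCEP; 1 h at 37 C in the dark.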
# CtBP-E1A inh: CtBP/E1A binding inhibition. AlphaScreen GST-E1A/His-CtBP binding, 1536-well; stronger effect = lower value; control for the full effect not named in the record. activity change, % (no concentration beside the values). hit rate 0.49% among 340,000. AID 651724; in the data active means activity change below about -65%; inconclusive means about -30% to -65%; inactive means above about -30%; further: on the % scale 0 is the no-effect control and ±100 the full control effect; compound concentration not given in the record
#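 Protein mix (5X: 125 nM each GST-E1A, His-CtBP) was incubated with pinned compound 2 h at 37 deg C in dark, in 50 mM Tris pH 8.0 buffer with 300 mM NaCl. Glutathione donor and nickel acceptor beads followed; AlphaScreen signal read after 1 h.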
# D2 PAM: human D2 receptor positive allosteric modulation; P14416; hit rate 0.23% among 360,000; AID 624464; DiscoveRx D2 beta-arrestin cells, luminescence, 90 min; 100% = 57 uM dopamine signal; potentiation, % (concentration not given with the values); active = potentiation of 50% or more; inconclusive = 30% to 50%; inactive = 30% or less;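 further: compound concentration not given in the record; tested on top of an EC20 dose of dopamine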
# Target sequence (P14416 whole entry, looked up): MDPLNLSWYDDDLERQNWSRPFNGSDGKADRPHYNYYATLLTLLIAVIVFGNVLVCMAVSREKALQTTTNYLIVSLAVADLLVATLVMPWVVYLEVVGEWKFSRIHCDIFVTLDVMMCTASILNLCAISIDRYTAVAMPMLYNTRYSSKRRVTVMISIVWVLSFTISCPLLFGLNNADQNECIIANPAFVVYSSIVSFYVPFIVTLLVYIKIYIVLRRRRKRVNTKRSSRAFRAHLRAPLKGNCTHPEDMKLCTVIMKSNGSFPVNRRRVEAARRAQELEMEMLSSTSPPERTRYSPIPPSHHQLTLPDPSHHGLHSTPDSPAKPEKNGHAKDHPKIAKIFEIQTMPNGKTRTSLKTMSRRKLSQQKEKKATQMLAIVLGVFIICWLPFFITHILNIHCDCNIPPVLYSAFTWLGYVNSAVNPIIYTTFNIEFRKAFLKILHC
#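 PathHunter beta-arrestin assay in DiscoveRx D2 cells. Compounds were added with an EC20 of dopamine (50 nM final) for 90 min at 37 deg C. Luminescence was read 1 h after detection reagent, with 57 uM dopamine as the EC100 control.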
# D2 ag: activates the human D2 dopamine receptor. P14416. DiscoveRx PathHunter D2 beta-arrestin, luminescence, 90 min; 100% = 57 uM dopamine signal. activation, % (test concentration not listed). hit rate 0.084% among 360,000. AID 624465; in the data active = activation above about 40%; inconclusive = about 15% to 40%; inactive = below about 15%; further: compound concentration not given in the record; the text of the record calls up to 30% inactive
#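 Agonist mode: compounds alone added to overnight-plated D2 PathHunter cells for 90 min at 37 C, with 57 uM final dopamine (EC100) defining full response. Beta-arrestin recruitment detected by chemiluminescent reagent, read after 1 h at ambient temperature.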
# PINK1 modulator: changes PINK1 expression; AID 624263; hit rate 0.2% among 410,000; Potency, µM (doses to about 76.6 µM), for inactives: at the top dose activation (PINK1 increase), hits mostly activators; PINK1 immunofluorescence, high-content cytometry, 24 h; active = well fitted activation curve with a large enough effect; inconclusive = small, poorly fitted or top-dose-only effect; inactive = flat fitted curve, though single readings scatter; cell line not stated here;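 further: potency means the concentration at half of the fitted maximal effect; % of control where 0% means no effect; nearly all actives have a fitted effect of over 65% in size; a mitochondrial uncoupler was the plate control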
#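 A stable cell line was treated with compounds at 5 concentrations for 24 hours, with CCCP as control. PINK1 levels and mitochondrial localization were measured by immunofluorescence with mitochondrial, cell and nuclear markers after fixation, read by laser-scanning cytometry.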
# TRPML1 ag: agonists of human TRPML1 channel | Q9GZU1 | activation, % (concentration not given with the values) | AID 624414 | TRPML1-expressing cells, Ca2+ dye fluorescence, FDSS; host cell line not named in the record; reference of the full effect not given here | hit rate 0.12% among 410,000; in the data active = activation above about 50%; inconclusive = about 30% to 50%; inactive = below about 30%; further: 0% is about no effect; the text of the record puts the active cut at 80%
# Target sequence (Q9GZU1 whole entry, looked up): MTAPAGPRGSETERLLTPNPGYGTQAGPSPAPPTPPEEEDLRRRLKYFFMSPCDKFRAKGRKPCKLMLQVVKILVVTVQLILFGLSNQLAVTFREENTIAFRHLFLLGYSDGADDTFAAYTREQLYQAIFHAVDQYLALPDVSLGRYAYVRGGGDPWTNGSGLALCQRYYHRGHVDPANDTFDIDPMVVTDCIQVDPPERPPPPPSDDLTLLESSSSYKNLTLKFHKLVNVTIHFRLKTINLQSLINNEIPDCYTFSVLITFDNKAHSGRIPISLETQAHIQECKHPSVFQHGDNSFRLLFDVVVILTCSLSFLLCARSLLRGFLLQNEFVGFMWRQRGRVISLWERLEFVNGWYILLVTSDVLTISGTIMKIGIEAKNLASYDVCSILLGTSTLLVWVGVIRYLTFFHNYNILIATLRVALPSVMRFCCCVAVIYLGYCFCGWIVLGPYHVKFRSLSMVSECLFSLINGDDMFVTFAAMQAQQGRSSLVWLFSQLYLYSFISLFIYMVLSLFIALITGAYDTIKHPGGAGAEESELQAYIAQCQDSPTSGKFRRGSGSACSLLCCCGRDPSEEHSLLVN
#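 In this qHTS format, compounds were pin-transferred onto Ca8-dye-loaded TRPML1-DL cells induced with Tet overnight, and intracellular Ca2+ fluorescence was recorded kinetically for 110 s after a 10 s baseline. A subsequent 4uM final 54-4 (EC80) addition followed by a second 110 s read served as the antagonist phase.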
# * hit, by the source's call; . = no result given; [ ] = remark or other dose. Outcome played no part in choosing rows (roughly 1.3% active in at least one column).
SMILES,Six1-Eya2 blk,CtBP-E1A inh,D2 PAM,D2 ag,PINK1 modulator,TRPML1 ag
Cc1ccc(NC(=O)CN2C(=O)N/C(=C/c3cc(C)n(-c4ccc(C(=O)O)cc4)c3C)C2=O)cc1,-17,-7,-13,-3.2,0.5%,0.8
CCCCN(C(=O)C1CCCC1)C1CCS(=O)(=O)C1 (stereo unspecified),15,-1,-23,-1.8,0.2%,0.4
CCOC(=O)c1ccc[n+](CC(=O)c2ccc(NC(=O)c3ccccc3)cc2)c1,19,2,-2,3.0,1.8%,0.0
COc1ccc(CCNC(=O)COC(=O)c2cc3ccccc3oc2=O)cc1OC,-5,.,12,-1.3,1.6%,-0.7
CCN(C(=O)COC(=O)c1cc(S(=O)(=O)N(C)C)ccc1Cl)C1CCS(=O)(=O)C1 (stereo unspecified),2,0,-12,-0.3,3.9%,0.1
COc1ccc(CC(=O)N2CCN(C(=O)Cc3ccc(OC)cc3)CC2)cc1,-1,-1,0,-3.4,-2.2%,2.3
CSc1cccc(NC(=O)CSc2ccccc2)c1,5,5,-7,-2.4,0.0%,0.2
Cc1cccc(-n2ccc(=O)c(C(=O)Nc3ccc(S(=O)(=O)N4CCOCC4)cc3)n2)c1,-3,.,-12,-0.5,4.7%,0.9
COc1cc(/C=N/NC(=O)CCn2c3ccccc3c3ccccc32)cc(OC)c1OC,3,9,-1,1.6,1.0%,0.9
O=C(Nc1nnc(-c2ccccc2F)s1)Nc1ccccc1F,-8,0,-5,1.0,-0.5%,0.2
CC1CCN(CC(=O)N2c3ccccc3CCc3ccccc32)CC1,3,-8,-16,-2.7,-3.8%,0.8
Cn1c2ccccc2c2cnn(CC(=O)Nc3ccccc3Br)c(=O)c21,2,.,-14,-2.1,0.5%,0.2
CC(C)C(OC(=O)c1cccc(S(=O)(=O)NCC(F)(F)F)c1)C(=O)NC(N)=O (stereo unspecified),1,0,0,-2.2,4.0%,-0.3
Cc1ccc(N=C(NOCc2ccc(Cl)cc2Cl)c2nonc2N)c(C)c1,5,28,-13,1.6,23%[38.3 µM],0.5
Cc1ccc2c(c1)N(CC(=O)NC1CCCC1)C(=O)CO2,1,0,-7,-3.7,5.4%,0.2
CC1(C(=O)Nc2nnc(SCc3ccccc3)s2)Cc2ccccc2C(=O)O1 (stereo unspecified),-2,-6,-7,-0.8,1.4%[38.3 µM],0.7
COc1ccc(C(=O)NCC2(c3ccccc3)CCOCC2)cc1[N+](=O)[O-],4,16,3,-1.1,1.4%,0.5
Cc1cc(=O)oc2c3c(cc(OCC(=O)N[C@@H](Cc4ccccc4)C(=O)O)c12)OC(C)(C)CC3,-18,-7,27,6.5,1.3%,.
CC1C(=O)N(Cc2cn(Cc3ccco3)nn2)CCS(=O)(=O)N1Cc1ccc(-c2ccc(Cl)c(Cl)c2)cc1 (stereo unspecified),-4,-1,2,-6.7,0.6%,0.7
COc1ccccc1OCC(=O)N/N=C/c1cccc2cccnc12,-74*,-86*,-2,-1.5,3.0%,0.0
O=S(=O)(Nc1ccccc1Cl)c1cccc2nsnc12,15,.,-17,-3.5,1.6%,.
CC(=O)Nc1cccc(OCC(=O)NS(=O)(=O)c2ccc(Cl)cc2)c1,-6,-1,-11,1.2,-0.7%,0.4
O=C(O)c1ccc(N/N=C/C2=Cc3ccccc3OC2)cc1,-6,-13,-13,4.4,8.0%,.
C[C@@H]1CN([C@H](C)CO)S(=O)(=O)c2ccc(C#Cc3ccccc3)cc2O[C@H]1CN(C)C(=O)Nc1ccc2c(c1)OCO2,-13,7,0,1.8,1.5%,-0.6
CCc1ccc(-n2c(=O)c3ccccc3n(CC(=O)C(C)(C)C)c2=O)cc1,4,.,0,-4.0,0.5%,2.8

# Five entries from above, with tabs:
Structure	Six1-Eya2 blk	CtBP-E1A inh	D2 PAM	D2 ag	PINK1 modulator	TRPML1 ag
Cc1cc(=O)oc2c3c(cc(OCC(=O)N[C@@H](Cc4ccccc4)C(=O)O)c12)OC(C)(C)CC3	-18	-7	27	6.5	1.3%	.
CSc1cccc(NC(=O)CSc2ccccc2)c1	5	5	-7	-2.4	0.0%	0.2
Cc1cccc(-n2ccc(=O)c(C(=O)Nc3ccc(S(=O)(=O)N4CCOCC4)cc3)n2)c1	-3	.	-12	-0.5	4.7%	0.9
Cc1ccc(NC(=O)CN2C(=O)N/C(=C/c3cc(C)n(-c4ccc(C(=O)O)cc4)c3C)C2=O)cc1	-17	-7	-13	-3.2	0.5%	0.8
COc1cc(/C=N/NC(=O)CCn2c3ccccc3c3ccccc32)cc(OC)c1OC	3	9	-1	1.6	1.0%	0.9

# Next structures:
SMILES,Six1-Eya2 blk,CtBP-E1A inh,D2 PAM,D2 ag,PINK1 modulator,TRPML1 ag
CCCCN(Cc1cc2cc(OC)ccc2[nH]c1=O)C(=O)c1ccco1,-11,-7,-8,0.0,0.4%,0.5
CCc1ccc(CN(C(=O)c2ccco2)C2CCS(=O)(=O)C2)cc1 (stereo unspecified),0,7,-6,-1.7,-0.4%,-1.2
COc1ccccc1OC(C)C(=O)Nc1nc(-c2ccc(S(=O)(=O)N3CCOCC3)cc2)cs1 (stereo unspecified),-11,-22,6,-1.8,4.6%,0.1
O=C(c1ccco1)N1CCN(Cc2nnc(-c3cccc(Cl)c3)o2)CC1,2,1,0,6.1,-0.5%,0.4
O=C(NCc1ccccc1)c1cc(C2CCCN(C(=O)c3cccs3)C2)on1 (stereo unspecified),3,-12,-4,7.2,1.2%,-0.8
CN(C)CCCNC(=O)C(=O)Nc1cc2c3c(c1)CC(=O)N3CCC2,1,1,-20,-2.5,-1.4%,1.2
Cc1ccccc1NC(=O)c1cccc(OCc2c(C)noc2C)c1,6,5,6,-1.6,1.0%,-0.8
Cc1ccc2nc3n(c(=O)c2c1)CCCCC3,-2,0,-13,-2.0,0.7%,-1.0
Cc1cc(C)c(C)c(S(=O)(=O)Nc2ccc(C(N)=O)cc2)c1C,2,-2,2,2.2,-1.0%,0.4
CCOc1c(Br)cc(Br)cc1/C=C1\SC(N)=NC1=O,2,-7,-7,-6.6,1.6%,0.6
COc1ccccc1CNc1nc(SC)ncc1CO,-2,5,-11,-4.3,-0.8%,1.2
Cc1c(C(=O)Nc2ccc3c4c(cccc24)CC3)cccc1[N+](=O)[O-],-6,0,0,-5.6,8.6%,7.2
COc1cc(CNCc2cccnc2)ccc1OCC(=O)NC1CCCCC1,-5,0,-23,-1.4,2.9%,-0.1
Nc1cccc2[nH]c(C(F)(F)F)nc12,-25,3,4,1.1,3.1%,-0.4
COc1cc(/C=C/C(=O)NCc2ccccn2)cc(OC)c1OC,-1,1,-16,-1.1,3.6%,1.8
CC1=C(C(N)=O)C(c2cccnc2)n2nc(SCc3ccccc3Cl)nc2N1 (stereo unspecified),1,-4,1,-0.4,-0.3%,0.9
CCCc1cc(CNC(=O)C2CCC(=O)N(CCc3cccc(F)c3)C2)on1 (stereo unspecified),1,1,7,1.4,-0.3%,-0.9
COc1cc2c(cc1OC)C(C)N(S(=O)(=O)c1cnc(Cl)c(Cl)c1)CC2 (stereo unspecified),3,.,-6,3.7,-2.4%,1.8
CN(C)c1nc(Nc2ccccc2)nc(Oc2ccc(=O)[nH]n2)n1,0,-6,0,-0.3,-1.6%,0.8
CN(c1ccccc1)S(=O)(=O)c1ccc(Cl)c(C(=O)Nc2nc3ccccc3[nH]2)c1,-21,-18,-1,1.5,-1.3%,-0.1
CCOC(=O)c1c(C)[nH]c(C)c1S(=O)(=O)N1CCN(c2ccc([N+](=O)[O-])cc2)CC1,-19,.,-19,-8.5,4.0%,0.0
CC(=O)Nc1ccc(S(=O)(=O)N2CCN(c3ccc(C)c(Cl)c3)CC2)cc1,2,-10,0,-1.3,8.8%,-0.2
Cc1nc(NC(=O)c2c(-c3ccccc3Cl)noc2C)sc1C,-3,-1,18,-5.2,1.9%,1.0
COc1ccc(-c2coc3c(C(=O)NCCN(C)C)cccc23)c(C)c1,-6,0,-16,4.2,3.1%,0.2
Cc1ccc(C)c(NC(=O)c2ccc3ccccc3n2)c1,13,9,-10,-2.9,9.2%,3.4

# Next part.
SMILES,Six1-Eya2 blk,CtBP-E1A inh,D2 PAM,D2 ag,PINK1 modulator,TRPML1 ag
Cn1cccc1C(=O)NNC(=O)c1ccccc1Br,-2,-7,13,0.7,0.9%,-0.7
Cc1cccc(C)c1NS(=O)(=O)c1c(C(=O)N2CCCCC2)c(C)n(C)c1C,-1,6,-1,3.1,0.4%,-0.5
CCc1ccc(NC(=O)C2CCCN(S(=O)(=O)c3cnc[nH]3)C2)cc1 (stereo unspecified),17,.,-6,2.2,-0.1%,-0.3
O=C(Nc1ccc(Br)cc1)N1CCCC(O)C1 (stereo unspecified),-7,12,2,-0.1,0.0%,0.6
C=CCNC(=O)/C(=C/c1ccc(Br)cc1)NC(=O)c1ccccc1OC,-10,.,0,0.6,-0.7%,1.9
O=C(O)c1ccc(N=NNc2cccc([N+](=O)[O-])c2)cc1,-19,-14,-2,-3.4,1.9%,-0.5
CCOc1ccc(NC(=O)CSc2nc3nc4c(cc3c(=O)n2CC)COC(C)(C)C4)cc1,12,-1,-3,-3.5,1.6%,2.3
COc1ccccc1NC(=O)/C(=C/c1ccncc1)NC(=O)c1ccccc1,2,0,1,-1.6,2.1%,0.0
CC(C)COP(=O)(c1ccc(N(C)C)cc1)C(O)c1cccnc1 (stereo unspecified),-2,-16,-5,-4.0,0.7%,4.0
Cc1ccc(NC(=O)COC(=O)c2ccc3c(c2)OCO3)cc1S(=O)(=O)N1CCCCC1,-14,-13,-13,-2.1,4.5%,2.1
CCCC(C(=O)NC(C)(C)C)N(Cc1ccccc1)C(=O)c1snc(C(N)=O)c1N (stereo unspecified),-2,3,-11,-0.8,2.8%,-1.0
CCCNC(=O)C1(C)CCCN(Cc2cccc3ccccc23)C1 (stereo unspecified),0,16,-6,-1.0,-0.8%,-0.4
CC(C)(C)C(=O)c1c(N)[nH]c(C(=O)c2ccccc2)c1-c1ccc(Cl)cc1Cl,9,0,.,.,3.1%,-0.5
CCOC(=O)c1ccc(NCCOC)c([N+](=O)[O-])c1,-6,1,-10,-4.1,-0.5%,-1.5
COc1ccc(C(O)c2nc(-c3ccc(OC)c(OC)c3)cs2)cc1 (stereo unspecified),0,-1,-2,1.8,2.2%,-0.9
CN(C(=O)CSc1ncn[nH]1)C1(C#N)CCCCC1,4,-13,-2,-3.6,1.2%,1.6
Cc1onc(-c2c(F)cccc2Cl)c1C(=O)N1CCCCC1,-4,-3,-8,-3.2,-0.8%,0.3
Cc1nn(C)cc1S(=O)(=O)NC1CCCC1,0,-3,-8,2.0,-1.0%,0.5
Cn1cccc1Cc1nnc(SCC(=O)NCC2CCCO2)n1-c1ccc(F)cc1 (stereo unspecified),-10,-3,-3,-4.9,-4.6%,1.2
COc1ccc(NC(=O)COC(=O)c2cccn2C)cc1S(=O)(=O)N1CCCCC1,-9,-15,-5,3.3,4.7%,0.9
O=C(Nc1ccc2c(c1)OCO2)c1c(F)cccc1F,-2,5,2,-1.1,3.8%[38.3 µM],0.9
